# Screening results: PubChem, several laboratories
# GALR2 agonist = GALR2 receptor agonists, primary screen, cell-based | activation, %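 (tested at 5 µM)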 | GALR2-expressing cells, agonist activation read-out | Galanin receptor type 2 (Homo sapiens), O43603 | hit rate 0.48% among 140,000 | AID 803, 2007;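 active = above mean plus 3 SD of all compounds, about 5% in these data, not always enough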;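 note: 0% = vehicle buffer wells and 100% = reference agonist at full effect; tested in CHO reporter cells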
# HSV replic up = enhancers of HSV replication in host cells, fold increase, host cell viability; HSV replication augmentation in cells; hit rate 0.005% among 220,000; maximum fold increase;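 active = peak rise of 1.5-fold or more in the series; tested in PC3 cells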;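 note: first round at 10 µM; read as green reporter fluorescence; hits show the peak of a series up to 25 µM; 1 = signal of infected wells without compound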
# RGS16-Gao HTS = modulators of RGS16 binding to Galphao, primary screen, biochemical, human proteins, multiplexed bead flow cytometry | binding response (% of control), % at 10 µM | Regulator of G-protein signaling 16 (Homo sapiens) + Guanine nucleotide-binding protein … | AID 1441, 2008 | hit rate 0.38% among 220,000 | bead-based flow cytometry RGS16-Galphao binding, fluorescence; actives lie on both sides;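 active = below 25% or above 175%, edge rows of some plates excepted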;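 note: Galphao activated by GDP with aluminum fluoride before binding; 100% = wells without compound and 0% = beads without RGS; some results beyond the cut were filed as inactive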
# Insulin prom inh = inhibitors of insulin promoter-driven GFP, primary screen, imaging, TRM-6 cells (human fetal islet line), eGFP reporter, cell count | reporter expression induced with tamoxifen | inhibition, % at 2 µM | hit rate 0.9% among 130,000;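 active = inhibition above the mean plus 3 SD, with well images judged a real hit on visual review, cut at about 60% in these data, passing the limit was not always enough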
# PKD1 kinase inh = inhibitors of human PKD1 kinase, biochemical, fluorescence polarization. inhibition, %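 (about 10 µM by stock and volumes)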. hit rate 0.056% among 200,000. PKD1 kinase fluorescence polarization assay. Serine/threonine-protein kinase D1 (Homo sapiens), Q15139. AID 797, 2007;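 active = inhibition of 50% or more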;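 note: controls were vehicle for no effect and a reference inhibitor for full effect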
# Target sequence (Q15139 whole entry, looked up): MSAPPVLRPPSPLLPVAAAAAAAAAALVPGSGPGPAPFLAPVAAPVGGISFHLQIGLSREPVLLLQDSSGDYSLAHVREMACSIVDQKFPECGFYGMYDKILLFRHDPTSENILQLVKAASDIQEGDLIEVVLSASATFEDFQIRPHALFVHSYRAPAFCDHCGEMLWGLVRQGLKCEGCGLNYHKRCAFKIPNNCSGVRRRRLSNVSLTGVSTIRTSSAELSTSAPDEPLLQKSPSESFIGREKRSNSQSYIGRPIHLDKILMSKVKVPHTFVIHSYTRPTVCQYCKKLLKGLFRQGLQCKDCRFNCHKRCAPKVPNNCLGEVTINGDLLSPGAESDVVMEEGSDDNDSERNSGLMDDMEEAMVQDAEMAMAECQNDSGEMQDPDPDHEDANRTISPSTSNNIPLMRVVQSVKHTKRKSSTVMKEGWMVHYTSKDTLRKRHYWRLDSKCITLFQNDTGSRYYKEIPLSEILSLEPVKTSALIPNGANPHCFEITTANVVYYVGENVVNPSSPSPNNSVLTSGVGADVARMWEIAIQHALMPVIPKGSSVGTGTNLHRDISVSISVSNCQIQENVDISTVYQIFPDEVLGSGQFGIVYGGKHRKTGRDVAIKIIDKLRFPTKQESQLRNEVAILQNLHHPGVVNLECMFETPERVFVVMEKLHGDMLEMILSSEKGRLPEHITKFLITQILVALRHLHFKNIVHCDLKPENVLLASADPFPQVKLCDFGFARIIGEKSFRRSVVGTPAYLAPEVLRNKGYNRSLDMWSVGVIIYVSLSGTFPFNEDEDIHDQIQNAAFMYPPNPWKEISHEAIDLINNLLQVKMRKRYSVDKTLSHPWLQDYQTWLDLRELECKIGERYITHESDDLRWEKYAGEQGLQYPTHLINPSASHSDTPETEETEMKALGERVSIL
# Insulin prom inh cell count = second read-out of Insulin prom inh, no call of its own (marks repeat the call); normalized cell count, %; measured here: cell count, toxicity; reference of the scale not given here;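 cells exposed to compound for 48 h; stained nuclei by imaging scaled within each plate; lower means fewer cells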
# HSV replic up primary fold = further read-out of HSV replic up, marked with its call; fold increase; compound at 10 µM; measured here: primary screen fold increase 10 uM; tested in PC3 cells;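 GFP signal in the first replicate; 1 = infected wells without compound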
# * marks the source's active call; other numbers are inactive results; i = inactive; . = not tested or not shown; [ ] = remark or other dose.
SMILES,GALR2 agonist,HSV replic up,HSV replic up primary fold,RGS16-Gao HTS,Insulin prom inh,Insulin prom inh cell count,PKD1 kinase inh
CC(C)(NO)/C(=N/O)c1cccs1,-4.4,i,0.97,99.0,-2.9,101.8,4.6
O=C(NCc1ccccc1)C(c1cccs1)N(C(=O)c1csnn1)C1CC1 (stereo not given),-1.1,i,0.86,100.6,.,.,-5.3
Cc1ccc2c(c1)cc(CN(Cc1ccco1)S(=O)(=O)c1ccccc1)c1nnnn12,-2.3,i,1.05,107.7,12.9,134.3,5.3
O=C(COc1ccc2ccccc2c1)N1c2ccccc2Sc2ccccc21,-0.6,i,1.05,99.6,-22.2,68.8,0.1
COc1ccc(-c2nn(-c3ccccc3)cc2C(=O)NCCCn2ccnc2)cc1,-0.8,i,1.03,101.9,.,.,-8.8
CCc1cccc(NC(=O)c2ccc(Cn3nc(C)cc3C)o2)c1,-0.1,i,0.89,59.9,46.1,122.8,-5.2
Cc1nc(C)c(-c2csc(NCc3ccco3)n2)s1,-0.7,.,.,96.0,-35.7,111.2,-14.6
COc1ccc(C(=O)NC(=S)NNC(=O)c2ccc3ccccc3n2)cc1,.,i,0.87,105.2,.,.,.
COc1ccc(-n2c(/C=C3\C(=O)N(C)c4ccccc43)nc3ccccc3c2=O)cc1,.,i,0.86,103.0,.,.,.
O=C(O)C1CCCCC1C(=O)Nc1ccc(Cl)cc1 (stereo not given),-1.6,i,0.75,102.4,.,.,-3.9
CCn1c(C(=O)Nc2ccsc2C(=O)OC)cc2sc(Cl)cc21,-0.1,i,0.97,126.5,.,.,-4.6
Cc1cc(C)nc(NS(=O)(=O)c2ccc(NC(=O)CSc3nc4ccccc4[nH]3)cc2)n1,-0.9,.,.,102.7,7.7,76.7,-3.4
O=S(=O)(NCC1OCCc2ccccc21)c1ccc(S(=O)(=O)N2CCOCC2)cc1 (stereo not given),-3.5,i,1,103.1,-118.2,95.1,-15.4
Cc1[nH]c(=S)sc1Cc1ccc(Cl)c(Cl)c1,-2.6,i,1.14,118.8,25.8,85.0,-0.2
O=C(COC(=O)c1ccccc1)Nc1cccc(S(=O)(=O)N2CCOCC2)c1,.,i,1.04,98.1,.,.,-3.3
S=c1[nH]nc(COc2ccccc2)n1/N=C/c1cccs1,0.7,i,0.94,100.7,.,.,1.2
O=C(CCc1nc2ccccc2c(=O)[nH]1)OCCOc1ccc(Cl)cc1,.,i,0.92,99.4,.,.,-6.2
COc1ccc(NC(=O)NC2CCCCC2C)cc1 (stereo not given),.,i,0.86,104.9,.,.,2.5
COc1ccc(NC(=O)COC(=O)C2CCN(S(=O)(=O)c3cccs3)CC2)cc1,.,i,0.96,96.4,31.2,100.3,-2.3
CCN1CCN(Cc2ccc(NC(=O)Nc3ccccc3Cl)cc2)CC1,-1.6,i,0.96,79.8,.,.,4.8
COc1cc(NC(=O)C(C)C)ccc1NC(=O)c1ccco1,-2.2,i,0.72,99.9,6.7,138.9,5.5
COc1ccccc1N1C(=O)CC(Sc2nc(C)cc(C)n2)C1=O (stereo not given),-1.6,i,0.76,92.3,-203.7,75.3,-1.5
CCOC(=O)C/C(C)=N/NC(=O)CN(c1ccc(Br)cc1)S(=O)(=O)c1ccccc1,-0.9,i,0.96,27.0,.,.,9.1
CC(=O)Nc1cc(C(=O)N2CCc3ccccc3C2)ccc1Sc1ccc(C)cc1,-0.1,i,0.94,99.8,-2.9,92.7,-17.5
O=C1C(c2ccccc2)C(c2ccccc2)NC(c2ccccc2)C1c1ccccc1 (stereo not given),-0.4,i,0.91,102.8,.,.,-18.1
COc1ccc(C(=O)Nc2ccccc2-c2nnn(CC(=O)NCc3ccco3)n2)cc1,-1.9,i,1,94.8,.,.,-7.2
CCNC(=O)NC(=O)C(C)OC(=O)C1CCN(S(=O)(=O)c2ccc(C)c(C)c2)CC1 (stereo not given),-1.4,i,0.94,105.5,-107.8,87.2,-19.7
Cc1nn(C)c(C)c1C1C(C#N)=C(N)Oc2n[nH]c(C)c21 (stereo not given),-1.2,i,0.94,230.3*[activator],.,.,-1.3
CC(=O)Nc1cccc(NC(=O)c2oc3ccccc3c2C)c1,-1.7,.,.,82.1,-14.8,132.6,-3.2
NS(=O)(=O)c1ccc(CCNC(=O)C2CCN(S(=O)(=O)c3cnc[nH]3)CC2)cc1,-0.1,i,0.89,212.4,-4.5,91.3,-3.5
COc1ccc(/C=N/NC(=O)C[n+]2ccccc2)c(OC)c1OC,-1.4,.,.,95.2,.,.,-1.8
COc1ccc(-c2ccc(SCC(=O)NCc3ccco3)nn2)cc1OC,0.0,i,1.04,97.9,.,.,-7.2
CCn1cc(C(=O)Nc2cc(C)ccc2C)c(=O)c2ccc(C)nc21,.,i,0.88,110.6,-70.0,141.7,-1.5
Clc1ccc(C2=NN=C3COc4ccccc4N3C2)cc1,-1.1,i,0.88,32.9,.,.,2.0
Cc1csc(NC(=O)CCC(=O)N(CC(=O)NC2CCCC2)Cc2ccco2)n1,-1.7,i,0.8,89.5,.,.,-5.8
O=C(O)COc1ccc2nsnc2c1Cl,-2.8,.,.,99.2,.,.,-0.6
O=C(O)CCCNC(=O)c1cncc(Br)c1,-1.1,.,.,98.6,40.0,125.7,-9.8
COc1ccccc1N1CCN(C(=O)C(NS(=O)(=O)c2cccs2)c2ccccc2)CC1 (stereo not given),0.3,i,0.92,95.7,.,.,7.2
Cc1noc(NS(=O)(=O)c2ccc(NC(=O)CCN3C(=O)c4ccccc4C3=O)cc2)c1C,.,i,0.9,98.8,-5.6,166.5,-4.5
CCOC(=O)C1=C(C)NC2=C(C(=O)c3ccccc32)C1c1cccc2ccccc12 (stereo not given),.,i,0.83,94.4,.,.,.
O=C(c1cccc(C(=O)N2CCc3ccccc32)n1)N1CCc2ccccc21,-0.5,i,0.96,102.4,-50.0,70.5,-7.0
Cc1ccc(S(=O)(=O)N2CCCC2C(=O)Nc2nccs2)cc1 (stereo not given),-1.5,i,0.83,101.6,-3.2,105.3,-3.3
S=C(N/N=C/c1cccs1)NC1CC2CCC1C2 (stereo not given),.,i,0.89,95.0,.,.,.
CCOC(=O)c1c(=O)n(O)c2ccc(C)cc2[n+]1[O-],0.4,i,1.02,91.2,.,.,3.3
O=C(CCCc1c[nH]c2ccccc12)N1CCN(c2ccc(N3CCOCC3)nn2)CC1,-1.1,i,0.98,101.2,.,.,-14.1
O=C(CCCn1c(SCc2cccc([N+](=O)[O-])c2)nc2ccccc2c1=O)NCC1CCCO1 (stereo not given),.,i,0.75,34.8,-33.3,91.2,3.9
O=C(CSCC(=O)Nc1ccccc1)N/N=C/c1c(O)ccc2ccccc12,-0.7,.,.,96.0,0.0,39.3,1.5
O=C(NCC1CCCN(C(=O)c2cscn2)C1)c1ccc(-c2ccccc2)cc1 (stereo not given),.,i,0.94,67.9,9.5,100.5,-4.2
NS(=O)(=O)c1ccc(CCNC(=O)CSc2nc3ccsc3c(=O)n2CCCCCC(=O)O)cc1,.,i,0.83,100.7,-14.3,101.8,-3.6
Cc1cc(C)c(C)c(S(=O)(=O)NCC(=O)NCc2ccco2)c1C,-1.0,i,1.02,98.5,-35.7,121.9,-2.7
CCOc1ccccc1NC(=O)Nc1ccon1,.,i,0.92,92.0,.,.,.
COc1cc(OC)cc(C(=O)NNC(=O)c2ccccn2)c1,-1.7,i,0.92,98.2,.,.,-2.6
COCCNC(=S)N/N=C/c1ccc(OCc2ccc(C(=O)OC)cc2)cc1,-1.5,i,0.94,98.6,28.1,148.7,-1.6
CCN(CC)C(=O)c1c([N+](=O)[O-])c(C(C)(C)C)nn1C,-0.5,i,1.04,106.7,-26.1,91.5,-1.4
Cc1nc(N)sc1-c1csc(NCc2ccccc2)n1,-0.7,i,1.15,101.0,34.3,79.2,-7.7
Cc1nnsc1C(=O)NNc1ccc(Cl)cc1,.,i,0.94,98.0,.,.,.
CC1CSc2n(-c3cccc(C(F)(F)F)c3)cc(-c3ccccc3)[n+]21 (stereo not given),.,i,1.07,99.4,.,.,-1.2
N#CC1=C(N)Oc2c(sc3ccccc23)C1c1ccco1 (stereo not given),-0.9,.,.,90.7,-100.0,67.7,-12.3
COC(=O)c1ccc(CSc2nc3ccccc3c(=O)n2-c2cccc(OC)c2)o1,0.2,i,0.98,102.2,-43.9,62.5,-6.0
CCCCOC(=O)Cn1c(=O)c2c(nc(Br)n2Cc2ccccc2)n(C)c1=O,-0.6,i,0.9,100.9,.,.,-1.9

# Profiles, looked up by structure.
# Entry for CCN(CC)C(=O)c1c([N+](=O)[O-])c(C(C)(C)C)nn1C → GALR2 agonist: -0.5; HSV replic up: i; HSV replic up primary fold: 1.04; RGS16-Gao HTS: 106.7; Insulin prom inh: -26.1; Insulin prom inh cell count: 91.5; PKD1 kinase inh: -1.4
# Entry for Cc1nc(N)sc1-c1csc(NCc2ccccc2)n1 → GALR2 agonist: -0.7; HSV replic up: i; HSV replic up primary fold: 1.15; RGS16-Gao HTS: 101.0; Insulin prom inh: 34.3; Insulin prom inh cell count: 79.2; PKD1 kinase inh: -7.7
# Entry for CCOc1ccccc1NC(=O)Nc1ccon1 → GALR2 agonist: .; HSV replic up: i; HSV replic up primary fold: 0.92; RGS16-Gao HTS: 92.0; Insulin prom inh: .; Insulin prom inh cell count: .; PKD1 kinase inh: .

# Continued.
SMILES,GALR2 agonist,HSV replic up,HSV replic up primary fold,RGS16-Gao HTS,Insulin prom inh,Insulin prom inh cell count,PKD1 kinase inh
COc1ccccc1N1Cc2ccccc2C1,-2.8,i,0.97,98.4,-40.0,54.4,-4.8
Cc1ccc2[nH]c(=O)c(CN(Cc3cccnc3)Cc3nnnn3CCN3CCOCC3)cc2c1,-3.6,i,0.78,102.5,-3.2,61.6,-15.8
Cc1ccc(-c2ccc(=O)n(CC(=O)N3CCN(c4cc(Cl)ccc4C)CC3)n2)cc1,-2.4,i,0.95,102.6,8.6,29.3,-8.1
CCC(=O)Nc1ccc(N/C(N)=N/c2nc(C)cc(C)n2)cc1,.,i,1.14,103.2,.,.,.
O=C(Cc1cccs1)N1CCCC(c2nc3c(nnn3Cc3ccc(F)cc3)c(=O)[nH]2)C1 (stereo not given),-1.0,i,1.03,98.1,-21.4,147.8,6.1
COc1ccc(OC)c(C(c2nnnn2C2CCCC2)N2CCN(c3ccccc3)CC2)c1 (stereo not given),-1.2,i,0.91,101.6,.,.,-0.5
CCN1C(=O)CC(N2CCN(C(c3ccccc3)c3ccccc3)CC2)C1=O (stereo not given),-0.1,i,1.01,104.7,-230.0,62.6,3.8
CCCS(=O)(=O)c1c(S(=O)(=O)CCC)c2cnccn2c1C(=O)c1ccc(CC)cc1,-2.0,i,0.99,105.2,-77.1,61.7,-6.9
Cc1cc(-c2c(C(=O)N3CCOCC3)c(C)nn2-c2ccccc2)no1,.,i,0.96,99.6,.,.,.
COCc1ccc([C@@H]2C[C@H]3CN(Cc4ccccc4C)C(=O)[C@]34CCCN24)o1,.,i,1.02,114.1,.,.,-5.1
O=C(O)CCC(=O)N1CCN(c2cccc(Cl)c2)CC1,-2.7,i,0.85,101.3,-466.7,57.6,-12.2
CCOC(=O)c1c(NC(=O)CSc2ncnc3ccccc23)sc(C)c1C,0.4,i,1,98.7,-10.7,120.9,5.1
Cc1cccc(-n2ncc3c(N4CCc5ccccc54)ncnc32)c1,-0.8,.,.,100.2,35.1,75.5,-2.7
COC(=O)c1cnc(N2CCOCC2)nc1C(F)(F)F,.,i,0.96,98.9,.,.,.
CC(/C=N/NC(=O)CSc1nc(C)cc(C)n1)=C\c1ccccc1,-1.1,i,1.23,95.6,.,.,13.1
CC1CCN(C(=O)Cn2c(SCC(=O)Nc3nccs3)nc3ccccc32)CC1,-0.6,i,0.95,96.0,-154.6,153.6,2.0
Cc1ccc(S(=O)(=O)N(C)c2ccc(C)c([N+](=O)[O-])c2)cc1,.,.,.,23.1,50.0,136.5,-3.3
c1ccc2c(-c3nc(-c4ccncc4)no3)cccc2c1,-0.7,i,1.13,86.5,10.7,127.4,4.0

# Laid out differently: results already given
Molecule | GALR2 agonist | HSV replic up | HSV replic up primary fold | RGS16-Gao HTS | Insulin prom inh | Insulin prom inh cell count | PKD1 kinase inh
COc1ccccc1N1C(=O)CC(Sc2nc(C)cc(C)n2)C1=O (stereo not given) | -1.6 | i | 0.76 | 92.3 | -203.7 | 75.3 | -1.5
COC(=O)c1cnc(N2CCOCC2)nc1C(F)(F)F | . | i | 0.96 | 98.9 | . | . | .
CC1CCN(C(=O)Cn2c(SCC(=O)Nc3nccs3)nc3ccccc32)CC1 | -0.6 | i | 0.95 | 96.0 | -154.6 | 153.6 | 2.0
